# HTT promoter inh: Primary qHTS for Identification of Small Molecule Inhibitors of Huntingtin Promoter Activity | HEK293 HTT promoter firefly luciferase reporter (activity 0% = vehicle and -100% = no light), 24 h | Potency, µM (top dose mostly 57.5 µM), without a hit: at the highest dose activity change, negative = inhibition, most hits filed as inhibitors | actives 0.93% (n = 48,000) | AID 1508623, 2021; active = well fitted inhibition curve with a large enough effect; inconclusive = small, poorly fitted or top-dose-only effect; inactive = no such curve, though single readings can be large or run the other way; also: nearly all actives have a fitted effect of over 50% in size
#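 HEK293 cells carrying firefly luciferase reporters were seeded at 2,500 per well in Opti-MEM and cultured for 24 h. They were then treated with compounds at up to 57.5 uM final for 24 h at 37 degrees C before Dual-Glo luminescence readout.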
# PMP22 txn: Cell-based coincidence reporter assay to measure PMP22 gene transcription in S16 Pmp22-F2sN cells - Primary screen; Potency, µM (top dose mostly 57.5 µM), inactives show at the highest dose activity change, negative = inhibition, hits mostly inhibitors; actives 2% (n = 43,000); AID 1508649, 2021; S16 Pmp22-F2sN Schwann cells (luciferase reporters placed in the Pmp22 gene), FLuc/NLuc coincidence luminescence, 24 h; active = clear falling dose curves in both reporters; inconclusive = both reporters move, but less clearly or upward; inactive = either reporter flat; the % is the NLuc reporter signal; also: % is scaled to controls: 0 for no effect and ±100 for the full control effect; some results filed as inactive show a strong effect at the top dose
#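 Transcriptional readout in edited S16(c9) cells: two luciferases reported from the Pmp22 locus, measured in turn after 24 h compound incubation.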
# The depositor's hits bear a star; u = inconclusive; x = not tested or not shown; [ ] = another dose, or the depositor's remark. Potency is read from the fitted curve at half-maximal effect.
# Under each structure: HTT promoter inh	PMP22 txn
> Cc1cccc(S(=O)Cc2ccc(C(=O)NC3CCCCCC3)o2)c1 (stereo not drawn)
 : -4%	-1%
> COC(=O)c1c(NC(=O)c2cc(=O)c3c(C)cc(C)cc3o2)sc2c1CCCC2
 : 10%	-3%
> Cc1ccccc1CN1c2ccccc2-c2nc(SCC(=O)NCc3ccccc3)ncc2S1(=O)=O
 : -32%	u
> O=S(=O)(c1cc(Br)c(Br)s1)N1CCN(c2ccccc2)CC1
 : -3%	-10%
> CCCn1c2ccccc2c2cnn(CC(=O)NCCc3cc(OC)ccc3OC)c(=O)c21
 : -12%	3%
> CCOc1ccc2oc(=O)cc(CN3CCN(c4cc(C)ccc4C)CC3)c2c1
 : -7%	-12%
> CC(C)OC(=O)[C@H](C)N[P@](=O)(OC[C@H]1O[C@@H](n2ccc(=O)[nH]c2=O)[C@](C)(F)[C@H]1O)Oc1ccccc1
 : -3%	x
> COc1cc(/C=C(\C#N)C(=O)Nc2ccc(C)cc2)ccc1OCc1cc(=O)n2nc(C)sc2n1
 : -5%	-21%
> Cc1ccc(OCC(=O)Nc2nnc(SCc3cc(=O)n4cc(C)ccc4n3)s2)cc1
 : -2%	3%
> COc1ccccc1N1CCN(CCCNC(=O)c2cnn(-c3ccccc3Cl)c2C2CCN(C(=O)OC(C)(C)C)CC2)CC1
 : -14%	u
> CC1CCN(S(=O)(=O)c2ccc3c(ccn3CCC(=O)NCc3ccccc3F)c2)CC1
 : u	-4%
> COc1ccc(OCC(=O)Nc2ccc3c(c2)N(C)C(=O)c2ccccc2S3)cc1
 : -26%	-21%
> CC(C)c1ccc(NC(=O)c2cc3c(=O)[nH]c4ccccc4c3n2C)cc1
 : 1%	u
> CCCC(=O)n1nc(-c2cccnc2)nc1NCc1ccccc1
 : -2%	-1%
> CCCOc1cccc(C(=O)Nc2ccc(-c3nc4ccccc4o3)cc2)c1
 : 9%	-73%
> Cc1ccc(S(=O)(=O)N2CCCc3cc(NS(=O)(=O)c4ccc(F)cc4)ccc32)cc1
 : u	u
> COc1ccc(-c2oc3ncn4nc(-c5ccccc5O)nc4c3c2-c2ccc(OC)cc2)cc1
 : -2%	8%
> Cc1ccc2nc(CN3CCN(C(=O)Nc4ccc(F)cc4)CC3)oc2c1
 : u	u
> COC(=O)c1scc(-c2ccc(C)cc2)c1S(=O)(=O)N1CCN(c2ccc(C)cc2C)CC1
 : u	-24%
> Cc1ccc(N2CCN(C(=O)C3CCC(CNS(=O)(=O)c4ccc(Br)s4)CC3)CC2C)cc1 (stereo not drawn)
 : u	u
> CCOc1ccc(Oc2nc(NC)nc(N3CCOCC3)n2)nn1
 : 17%	u
> Cc1c(Cl)cccc1NS(=O)(=O)c1ccc(-c2cnc(C3CC3)o2)cc1
 : u	u
> Cc1ccccc1Nc1c(-c2cccc(O)c2)nc2ccc(Br)cn12
 : -22%	-28%
> COc1cccc(NC(=O)Cn2c(=O)n(-c3ccccc3)c(=O)c3c4c(sc32)CCCC4)c1
 : -14%	-50%
> CC(=O)Nc1ccc(NC(=O)C2CCCN2S(=O)(=O)c2ccc3c(c2)CCCC(=O)N3)cc1 (stereo not drawn)
 : -7%	-6%
> CCOc1ccccc1NC(=O)c1ccc2c(c1)CCN2S(C)(=O)=O
 : -5%	-49%
> CCOC(=O)c1noc2nc(C)n(CC(=O)Nc3ccc(OC)c(Cl)c3)c(=O)c12
 : 2%	-21%
> COc1ccc(Cn2c(CCC(=O)Nc3cc(C)cc(C)c3)nc3cccnc32)cc1
 : u	-8%
> O=C(NCCc1ccc(Cl)cc1)c1ccc2c(c1)N(Cc1c(F)cccc1Cl)C(=O)CS2
 : u	u
> Cc1cccc(C)c1Nc1nc2ccccc2nc1NS(=O)(=O)c1ccccc1
 : u	-25%

# The last 2 compounds of the section above come first, to join the parts.
# Under each structure: HTT promoter inh	PMP22 txn
> O=C(NCCc1ccc(Cl)cc1)c1ccc2c(c1)N(Cc1c(F)cccc1Cl)C(=O)CS2
 : u	u
> Cc1cccc(C)c1Nc1nc2ccccc2nc1NS(=O)(=O)c1ccccc1
 : u	-25%
> CCCCC(C)(C)[C@H](O)C=C[C@H]1[C@H](O)CC(=O)[C@H]1CC=CCCCC(=O)O
 : -8%	x
> Cc1ccc(NC(=O)C2CCN(c3nc(-c4ccc(C(C)C)cc4)no3)CC2)c(Cl)c1
 : 0.1µM*	-23%
> Cc1ccc(C2CCN(C(=O)Nc3ccc(Cl)cc3)C2)cc1 (stereo not drawn)
 : 16%	-23%
> O=S(=O)(c1ccc(F)cc1)N(Cc1nc(-c2ccccc2)no1)C1CCCCC1
 : -17%	-1%
> COc1ccc(N2CCN(C(=O)C3CCN(S(=O)(=O)c4cccs4)CC3)CC2)cc1
 : -22%	-20%
> CCOc1ccc(OCC)c(NC(=O)C(NS(=O)(=O)c2cccs2)c2ccccc2)c1 (stereo not drawn)
 : -20%	-29%
> Cc1ccc(NC(=O)CSc2nnc(-c3cc4occc4n3C)n2-c2ccccc2C)c(C)c1
 : u	1%
> Cn1c(C(=O)N2CCC(C(=O)N3CCN(c4ccccc4)CC3)CC2)cc2sccc21
 : u	-28%
> CCCc1nc(SCc2cc(=O)c3ccc(C)c(C)c3[nH]2)n[nH]1
 : -1%	-26%
> COc1ccc(-c2nc3cc(NC(=O)CSc4ccc(C)cc4)ccc3o2)cc1
 : 13%	-1%
> O=C(COc1ccccc1F)Nc1ccc(C(=O)OCc2cc(=O)n3nc(C4CC4)sc3n2)cc1
 : -11%	-1%
> CC1CCCN(C(=O)c2cc3c(Cl)nc4ccccc4c3s2)C1 (stereo not drawn)
 : 3%	-77%
> Cc1cccc2c1-c1sc(C(=O)NCc3ccc(Cl)cc3)cc1CO2
 : 2%	-14%
> O=C(CN(c1ccc(Cl)c(C(F)(F)F)c1)S(=O)(=O)c1ccccc1)N1CCc2ccccc2C1
 : u	u
> CC(C)COC(=O)Cn1nnc2sc(-c3ccccc3)cc2c1=O
 : 3%	-11%
> CCc1ccc(NC(=O)Cn2cc(S(=O)(=O)c3ccc(F)cc3)c(=O)c3cc(OC)ccc32)cc1
 : u	u
> Cc1ccc(CNC(=O)C2CCN(S(=O)(=O)N3CCCCC3)CC2)cc1
 : -18%	-3%
> Cc1ccc2nc(Nc3cccc(Cl)c3C)c(-n3nc(C)cc3C)nc2c1
 : 8%	-3%
> Cc1c(C(=O)N2CCC(C)CC2)c(S(=O)(=O)Nc2cccc(C(F)(F)F)c2)c(C)n1C
 : -38%	3%
> CC(C)(C)OC(=O)N1CCC(c2c(C(=O)N3CCN(C(=O)c4ccco4)CC3)cnn2-c2ccccc2Cl)CC1
 : -15%	-18%
> CCN(CC)S(=O)(=O)c1ccc2c(c1)N(CC(=O)N1CCN(c3cccc(Cl)c3)CC1)C(=O)CO2
 : u	-12%
> CC(C)Oc1ccc(C(=O)N2CCN(CCc3ccccn3)CC2)cc1
 : -16%	-1%
> COc1ccc(NC(=O)CN(c2cccc(C)c2C)S(=O)(=O)c2ccccc2)cc1OC
 : -20%	-14%
> Cc1ccc(S(=O)(=O)c2c(O)cc(C)c(NS(=O)(=O)c3ccc(Br)cc3)c2C)cc1
 : u	-40%
> CCN(Cc1ccccc1)C(=O)CN1C(=O)CSc2ccc(S(=O)(=O)N(CC)CC)cc21
 : -8%	-7%
> CCc1cccc(NC(=O)CCS(=O)(=O)c2cc(Br)cc3c2N(C(C)=O)CC3)c1
 : -1%	-6%
> CCCN(C(=O)c1cc(S(=O)(=O)N2CCc3ccccc32)cn1C)c1ccc(OCC)cc1
 : u	u
> CN(C)c1ccc(/C=C(\C#N)c2nc3ccccc3c(=O)[nH]2)cc1
 : 78%[activator]	u
> COc1cc(/C=C(\C#N)c2nc3ccccc3n2C)cc(OC)c1OC
 : 42%[activator]	-84%
> CCN(Cc1ccccc1)C(=O)Nc1ccc2c(c1)N(C)C(=O)c1ccccc1S2
 : -10%	u

# Under each structure: HTT promoter inh	PMP22 txn
> CCN(c1ccc(C)cc1C)S(=O)(=O)c1nnc(NC(=O)c2ccccc2OC)s1
 : u	-1%
> COc1ccc(NC(=O)Cn2c(=O)n(CCc3ccccc3)c(=O)c3c4c(sc32)CCCC4)cc1
 : -3%	u
> O=c1oc2ccccc2cc1-c1cn2cc(Cc3ccc(Br)cc3)sc2n1
 : -20%	u
> COc1ccc(-c2cc(C(=O)Oc3cccc(C)c3)c3cc(C)ccc3n2)cc1
 : -5%	6%
> CCc1nc2ccc(C(=O)NCc3ccc(N(C)C)cc3)cc2nc1CC
 : -21%	-21%
> Cc1ccc(CNC(=O)Cn2c(=O)n(Cc3ccccc3)c(=O)c3sc4ccccc4c32)cc1
 : -7%	13µM*
> COC(=O)CSc1ncc2c(n1)-c1ccccc1N(Cc1ccc(Cl)cc1)S2(=O)=O
 : -13%	16%
> COC(=O)c1cc2sc(Cl)cc2n1CC(=O)Nc1cc(OC)cc(OC)c1
 : -23%	-19%
> Cc1ccc2c(c1)c(=O)c1ccccc1n2CCCC(=O)Nc1ccc(C)c(C)c1
 : u	u
> Cc1c2cnn(-c3ccccc3)c(=O)c2c(C)n1CC(=O)NCc1ccccc1Br
 : -17%	-7%
> COc1ccccc1NC(=O)c1c(NCc2sccc2C)sc2c1CCCCC2
 : -5%	-2%
> COc1ccccc1CNC(=O)Cn1c(-c2cccs2)cc2cc(F)ccc21
 : -22%	u
> O=C(NCC1CCN(Cc2ccccc2Cl)CC1)c1cc2ccc3cccnc3c2[nH]1
 : -8%	u
> Cc1ccc(N2CCn3c2nc2c3c(=O)n(C/C=C/c3ccccc3)c(=O)n2C)cc1C
 : 12%	-2%
> CCOC(=O)c1cccc(NC(=O)Cn2c(=O)nc(-c3ccccc3)c3ccccc32)c1
 : -10%	u
> CCN1CCN(C(=O)N[C@@H](C(=O)N[C@@H]2C(=O)N3[C@@H]2SC(C)(C)[C@H]3C(=O)O)c2ccccc2)C(=O)C1=O
 : 1%	x
> COc1ccc(CNC(=O)CN(c2ccccc2OC)S(=O)(=O)c2ccc(C)cc2)cc1
 : u	u
> Cc1c(Cl)cccc1NC(=O)c1cnc2sc(N3CCOCC3)nn2c1=O
 : -11%	-27%
> CSc1ccc(CCNC(=O)CCCn2c(=O)c3cccn3c3ccccc32)cc1
 : -23%	-11%
> CCC(C)NC(=O)c1nn(-c2ccc(C)cc2)nc1CO (stereo not drawn)
 : -2%	-11%
> CCN(CC)c1nc(-c2ccc(C(C)(C)C)cc2)nc2ccccc12
 : u	u
> CC(=O)Nc1ccc(S(=O)(=O)NCC2CCC(C(=O)NCc3ccccc3)CC2)cc1 (stereo not drawn)
 : -3%	-8%
> CCCn1c2ccccc2c2cnn(CC(=O)NCc3ccccc3Cl)c(=O)c21
 : -15%	-5%
> O=C(COc1ccccc1Cl)Nc1ccc2nc(SCC(=O)N3CCOCC3)sc2c1
 : -25%	-29%
> CC1(C)CC(=O)c2cc(C#N)c(=O)n(-c3ccc(Cl)cc3)c2C1
 : 15%	-5%
> CCOC(=O)c1ccc(NC(=O)c2ncn(-c3ccccc3)n2)cc1
 : 10%	14%
> C[N+](C)(C)CCOC(=O)CCC(=O)OCC[N+](C)(C)C
 : -1%	x
> CCCCN(CC)CCNC(=O)c1cc2c(=O)n(CC)c3ccccc3c2s1
 : -2%	u
> CCC(=O)Nc1ccccc1-c1nc2ccccc2n(CC(=O)c2ccc(C)cc2)c1=O
 : -2%	-4%
> O=C(C1COc2ccccc2O1)N(Cc1cccnc1)c1nc2c(Cl)cccc2s1 (stereo not drawn)
 : -28%	-32%

# Under each structure: HTT promoter inh	PMP22 txn
> Cc1ccc(NC(=O)c2cc(S(=O)(=O)N3CCc4ccccc43)ccc2F)cc1Cl
 : u	u
> COc1ccc(/C=C/C(=O)Nc2nc(-c3cccs3)ns2)cc1
 : -16%	8%
> CC(C)(C)c1ccc(-c2nnc(-c3ccccc3NC(=O)c3ccc(F)cc3F)o2)cc1
 : -13%	-3%
> CC(C)NC(=O)CN1C(=O)c2cccnc2Sc2ccccc21
 : -8%	5%
> C=Cc1ccc(Cn2c(C(=O)O)c(CNC3CCCCC3)c3ccc(C)cc32)cc1
 : 1%	22%
> O=S(=O)(NCC(c1ccco1)N1CCOCC1)c1ccc(Br)cc1 (stereo not drawn)
 : -17%	-11%

# Among those listed so far, these contain a tert-butyl group.
# Under each structure: HTT promoter inh	PMP22 txn
> COc1ccccc1N1CCN(CCCNC(=O)c2cnn(-c3ccccc3Cl)c2C2CCN(C(=O)OC(C)(C)C)CC2)CC1
 : -14%	u
> CC(C)(C)OC(=O)N1CCC(c2c(C(=O)N3CCN(C(=O)c4ccco4)CC3)cnn2-c2ccccc2Cl)CC1
 : -15%	-18%
> CCN(CC)c1nc(-c2ccc(C(C)(C)C)cc2)nc2ccccc12
 : u	u
> CC(C)(C)c1ccc(-c2nnc(-c3ccccc3NC(=O)c3ccc(F)cc3F)o2)cc1
 : -13%	-3%

# An excerpt from above in order of formula weight, smallest number first:
# Under each structure: HTT promoter inh	PMP22 txn
> C=Cc1ccc(Cn2c(C(=O)O)c(CNC3CCCCC3)c3ccc(C)cc32)cc1
 : 1%	22%
> O=S(=O)(NCC(c1ccco1)N1CCOCC1)c1ccc(Br)cc1 (stereo not drawn)
 : -17%	-11%
> Cc1ccc(NC(=O)c2cc(S(=O)(=O)N3CCc4ccccc43)ccc2F)cc1Cl
 : u	u

# Screening results: PubChem, National Center for Advancing Translational Sciences (NCATS)
